Source: PubChem
PrP UTR inh: inhibition of PrP 5' UTR reporter expression. inhibition, % (concentration not given with the values). cell-based PrP 5' UTR mRNA reporter, plate reader. 340,000 compounds, 0.35% hits;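 active means every replicate at 50% or more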;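 further: 0 = median of the neutral control wells; tested in H4 reporter cells; numbers are from one replicate; inactives centre near -14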
BJeLR lethal: kills HRASV12-expressing BJeLR cells; BJeLR (HRASV12) viability, CellTiter-Glo ATP luminescence, 48 h; reference of the scale not given here; inhibition, % (concentration not given with the values); 300,000 compounds, 0.17% hits;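 active means replicate mean above 50%; inconclusive means above 50% but judged a plate artefact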;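 further: 50 nL library stock added to about 25 µL; numbers are from one replicate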
Sa RN4220 lethal: kills Staphylococcus aureus RN4220; S. aureus RN4220 growth, OD600, 16 h; inhibition, % (no concentration beside the values); 330,000 compounds, 0.33% hits;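 active means z-score of -3 or lower and OD600 up to 0.18 on both plates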;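 further: plate controls were untreated cells for no effect and reference antibiotic for full effect; stock transfer was 100 nL into about 80 µL; one replicate is shown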
ugtP null kill: kills S. aureus RN4220 lacking UgtP. S. aureus RN4220 ugtP deletion, OD600 growth, 16 h; some inactives read as strong as hits. growth inhibition, % (test concentration not listed). 330,000 compounds, 0.54% hits;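 active means z-score under -3 and OD600 up to 0.15 on both plates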;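 further: plate controls were untreated wells for no effect and antibiotic for full effect; wells of about 80 µL received 100 nL stock; the first replicate is given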
Autofluor counter: flagged as autofluorescent in microsphere protease counterscreen | compound autofluorescence counterscreen, microsphere flow cytometry; active compounds read high | fluorescence intensity (concentration not given with the values) | 360,000 compounds, 3.1% hits;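 active means at least 3 SD above the mean of all compounds, about 16000 in these data; inconclusive means too few beads counted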;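 further: 100 nL of 1 mM stock went into each well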
Mtb hypoxia rep: reduces hypoxia-regulated biosensor signal in M. tuberculosis; 300,000 compounds, 0.1% hits; fluorescence inhibition, % (test concentration not listed); M. tuberculosis hypoxia-regulated fluorescent reporter, fluorescence;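 active means 35 to 45% if threefold the growth effect, above 45% if 1.5-fold the growth effect; inactive means the rest, general growth blockers included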;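 further: wells of about 50 µL received 100 nL stock; 0% = vehicle wells and 100% = reference inhibitor wells; whole bacteria with a GFP reporter of the hypoxia response; strong numbers were not always called active; many hits fall short of the cut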
Mtb hypoxia rep growth: further read-out of Mtb hypoxia rep, marked with its call; growth inhibition, %; measured here: M. tuberculosis growth (absorbance);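 0% = vehicle and 100% = reference antibiotic; read after six days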
* = called active by the depositor; ? = inconclusive; . = not tested or not shown; & = joins results of further samples. Not a hit list; overall some 4.1% were active at least once.

1	COC(=O)c1ccc(COc2ccc(/C=N/Nc3nc(C)cc(=O)[nH]3)cc2)cc1
2	Cc1ccc(C)c(NC(=O)CSc2nnc(-c3ccccc3)o2)c1
3	Cc1c(C(=O)OCC(=O)c2c(N)n(CC(C)C)c(=O)n(C)c2=O)oc2ccccc12
4	CCCCS(=O)(=O)c1sc2nc3c(cc2c1N)CCCC3
5	CCOC(=O)c1cc(C(C)(C)C)oc1CNC(=O)c1c(C)oc2c1CCCC2
6	CC(=O)Nc1ccc(S(=O)(=O)NCc2nc(-c3ccccc3Cl)no2)cc1
7	COc1ccc(C2CC=C(C(=O)O)C(c3cccc(Cl)c3)N2S(=O)(=O)c2ccc(Cl)cc2)cc1 (configuration not stated)
8	Cc1ccc2[nH]cc(CCNC(=O)c3ccco3)c2c1
Assay by compound,1,2,3,4,5,6,7,8
PrP UTR inh,-12,-30,-9,-38,-15,-16,.,-22
BJeLR lethal,2,-11,6,-15,2,6,.,-2
Sa RN4220 lethal,.,4.5,3.4,-1.8,-1.1,6.0,23,3.0
ugtP null kill,.,-3,0,-13,19,6,35,-3
Autofluor counter,?,6523,9168,9471,3907,3830,.,5794
Mtb hypoxia rep,.,.,4,-1,.,12,4,2
Mtb hypoxia rep growth,.,.,9,-16,.,3,-6,8

9	Cc1ccc(C(=S)NCS(=O)(=O)c2ccc(C)cc2)cc1
10	Cc1ccc2nc3c(cc(C(=O)NCC4CCCO4)c(=N)n3CCCOC(C)C)c(=O)n2c1 (configuration not stated)
11	COc1cc(/C=C2/SC(=O)NC2=O)ccc1Oc1ccc([N+](=O)[O-])cc1[N+](=O)[O-]
12	COc1ccc(S(=O)(=O)N2CCOCC2)cc1C(=O)NCC(c1ccccc1)c1ccccc1
13	CN(C)CCOC(=O)C1(c2ccccc2)CCOCC1
14	N#Cc1ccc(/C=C/C(=O)c2cccnc2)cc1
15	CCC(CC)c1nnc(NC(=O)C2=NNC(=O)CC2)s1
16	CC(=O)Nc1ccc(OS(=O)(=O)c2ccc([N+](=O)[O-])cc2)cc1
Assay by compound,9,10,11,12,13,14,15,16
PrP UTR inh,-8,-20,-16,-21,-9&-15,-16,-4,7
BJeLR lethal,6,.,-4,.,0&11,-4,-12,-1
Sa RN4220 lethal,12,1.5,5.4,1.9,6.8&1.2,29,0.6,4.8
ugtP null kill,32,1,20,11,-2&-3,0,0,22
Autofluor counter,23970*,9962,6124,3841,5260&3000,5271,4228,4094
Mtb hypoxia rep,4,8,9,-7,12,.,-2,7
Mtb hypoxia rep growth,5,-2,8,5,6,.,4,-5

Sorted by molar mass (largest number first): part of the list above.
7	COc1ccc(C2CC=C(C(=O)O)C(c3cccc(Cl)c3)N2S(=O)(=O)c2ccc(Cl)cc2)cc1 (configuration not stated)
12	COc1ccc(S(=O)(=O)N2CCOCC2)cc1C(=O)NCC(c1ccccc1)c1ccccc1
10	Cc1ccc2nc3c(cc(C(=O)NCC4CCCO4)c(=N)n3CCCOC(C)C)c(=O)n2c1 (configuration not stated)
16	CC(=O)Nc1ccc(OS(=O)(=O)c2ccc([N+](=O)[O-])cc2)cc1
9	Cc1ccc(C(=S)NCS(=O)(=O)c2ccc(C)cc2)cc1
13	CN(C)CCOC(=O)C1(c2ccccc2)CCOCC1
14	N#Cc1ccc(/C=C/C(=O)c2cccnc2)cc1
Assay by compound,7,12,10,16,9,13,14
PrP UTR inh,.,-21,-20,7,-8,-9&-15,-16
BJeLR lethal,.,.,.,-1,6,0&11,-4
Sa RN4220 lethal,23,1.9,1.5,4.8,12,6.8&1.2,29
ugtP null kill,35,11,1,22,32,-2&-3,0
Autofluor counter,.,3841,9962,4094,23970*,5260&3000,5271
Mtb hypoxia rep,4,-7,8,7,4,12,.
Mtb hypoxia rep growth,-6,5,-2,-5,5,6,.

Following part:
17	Cc1c(O)ccc2c(CC(=O)N[C@@H](Cc3ccccc3)C(=O)O)cc(=O)oc12
18	CC(O)CNc1cc(N)c([N+](=O)[O-])cc1[N+](=O)[O-] (configuration not stated)
19	CCOCCCn1c(SCC(=O)NC2CCCC2)nc2ccccc2c1=O
20	CSc1ccccc1NC(=O)CN1CCN(S(=O)(=O)c2ccccc2[N+](=O)[O-])CC1
21	O=C(O)c1cnn(-c2ccccc2)c1-n1cccc1
22	Cc1cc(C)c2c(CN3CCC(C)CC3)cc(=O)oc2c1
23	COCCCNC(=O)C1CCC(CNS(=O)(=O)c2ccc(OC)cc2)CC1 (configuration not stated)
24	CCN(CC(O)c1cccc(O)c1)C(=O)C12CC3CC(CC(C3)C1)C2 (configuration not stated)
Assay by compound,17,18,19,20,21,22,23,24
PrP UTR inh,-11,11,-4,-25,-35,-36,-19,-24
BJeLR lethal,0,-12,-1,.,2,4,18,8
Sa RN4220 lethal,1.5,14,4.4,2.2,-1.2,3.2,5.8,2.2
ugtP null kill,-6,4,10,-2,0,8,4,0
Autofluor counter,2814,2001,4197,8031,6675,4730,3322,3862
Mtb hypoxia rep,6,0,18,3,-4,13,11,3
Mtb hypoxia rep growth,8,3,15,6,-1,4,5,1

25	Cc1ccc(C2(C)NC(=O)N(CC(=O)Nc3ccc(Cl)c(S(=O)(=O)N4CCCCC4)c3)C2=O)cc1 (configuration not stated)
26	CCCCCn1c(=O)[nH]c2cc(C(=O)NCCCN(C)Cc3ccccc3)ccc2c1=O
27	COC(C(=O)NCc1ccccc1C)c1ccccc1 (configuration not stated)
28	Cc1ccc(NC(=O)/C(=C/c2ccc([N+](=O)[O-])cc2)NC(=O)c2ccccc2)cc1
29	Cc1nc(-c2ccccc2)cc(N2CCCC2)n1
30	O=C(c1ccc(Br)cc1)c1cc(-c2ccccn2)c(N2CCOCC2)s1
31	Cc1ccc(C(=O)OC(C)C(=O)c2cc(C)c(C)cc2C)o1 (configuration not stated)
32	O=[N+]([O-])c1ccc(N/N=C/c2ccc(O)c(O)c2O)c(S(=O)(=O)N2CCOCC2)c1
Assay by compound,25,26,27,28,29,30,31,32
PrP UTR inh,-10,-26,-5,-37,-40,-14,-23,-26
BJeLR lethal,1,0,-10,-2,-1,3,5,-1
Sa RN4220 lethal,-16,3.5,6.1,1.0,5.6,3.1,7.0,.
ugtP null kill,-14,4,14,-3,1,-8,12,.
Autofluor counter,?,3515,2044,?,23051*,19199*,5788,4170
Mtb hypoxia rep,9,10,1,3,15,1,11,.
Mtb hypoxia rep growth,9,-2,7,-6,17,8,4,.

33	COc1cc2c(cc1OC)C(c1cc(Br)c(OC)c(OC)c1)CC(=O)N2 (configuration not stated)
34	COc1ccc(/C=N/Nc2nc(N3CCCC3)nc(N3CCCC3)n2)cc1
35	CCn1c(COc2ccccc2OC)nc2ccccc21
36	CC(=O)Nc1ccc(OCc2cccc3ccccc23)cc1
37	CNC(=O)c1nn(-c2ccc(Cl)cc2)ccc1=O
38	COc1ccc(N2CCN(C3CC(=O)N(Cc4ccccc4)C3=O)CC2)cc1 (configuration not stated)
39	CCOC(=O)c1cnc(-n2nc(C)cc2C)nc1N(CC)CC
40	Cn1c(=O)c2c(ncn2CC(COCc2ccccc2Cl)OCc2ccccc2Cl)n(C)c1=O (configuration not stated)
Assay by compound,33,34,35,36,37,38,39,40
PrP UTR inh,-6,-7,-17,37,10,-10,-22,-35
BJeLR lethal,-1,5,-7,-12,-7,3,-3,-9
Sa RN4220 lethal,-0.5,.,3.3,-0.2,-5.2,15,21,8.8
ugtP null kill,10,.,9,-18,2,-61,-11,6
Autofluor counter,3126,11179,3568,4192,2151,4575,18780*,4303
Mtb hypoxia rep,3,.,-2,-11,.,7,-5,6
Mtb hypoxia rep growth,-2,.,-5,9,.,5,-4,3

41	COc1ccc(-n2cc(C(=O)c3ccc4ccccc4c3O)cn2)cc1
42	CCN(CC)C(=O)C1CCCN(C(=O)c2cc(COc3cccc(OC)c3)on2)C1 (configuration not stated)
43	CCOc1ccccc1NC(=O)COC(=O)Cc1ccsc1
44	COc1ccccc1C(=O)N/C(=C\c1cn(C)c2ccccc12)C(=O)N1CCCC1
45	O=C(NN=Cc1ccc2c(c1)OCO2)c1ccc(COCC(F)(F)C(F)F)cc1
46	COc1ccc(NC(=O)c2ccco2)c(NC(=O)Cc2cccs2)c1
47	CCOc1ccc(NC(=O)CN(C)C(=O)c2cn(-c3ccc(C)cc3)nc2-c2cccc(OC)c2)cc1OCC
48	CC(C)(C)OC(=O)N1CCC[C@H]1C(=O)Nc1ccc(S(=O)(=O)C(F)F)cc1
Assay by compound,41,42,43,44,45,46,47,48
PrP UTR inh,-18,-19,-13,-10,.,-32,-42,-7
BJeLR lethal,-4,-1,.,-4,.,2,.,-3
Sa RN4220 lethal,-0.7,2.4,2.0,3.0,-4.2,0.5,3.2,-0.5
ugtP null kill,-4,3,7,1,-4,0,4,3
Autofluor counter,2089,4018,8351,6456,.,3405,3998,3188
Mtb hypoxia rep,2,6,2,15,14,-16,9,0
Mtb hypoxia rep growth,2,1,-3,2,2,-5,3,-6

49	O=C1CCc2cc(S(=O)(=O)Nc3ccccc3)cc3c2N1CC3
50	NC(=NOC(=O)CCC1CCCC1)c1cccc([N+](=O)[O-])c1
51	c1ccc(C(c2ccccc2)c2noc(CN3CCC(c4ccncc4)CC3)n2)cc1
52	O=C(Nc1ccc(Cc2ccncc2)cc1)c1ccc(S(=O)(=O)N2CCCC2)cc1
53	CC12CCC(=O)C=C1CCC1C2CCC2(C)C(c3csc(N)n3)CCC12 (configuration not stated)
54	CC(C)CC(CN(N=O)C(Cc1ccccc1)CN(C)N=O)N(CCc1ccccc1)N=O (configuration not stated)
55	CCOc1ccc(/C(O)=C2/C(=O)C(=O)N(CC3CCCO3)C2c2cccs2)cc1 (configuration not stated)
56	CCOc1ccccc1NC(=O)NC1CCCCCCC1
Assay by compound,49,50,51,52,53,54,55,56
PrP UTR inh,9,.,-31,-3,-14,.,-19,1
BJeLR lethal,6,.,10,13,.,.,-9,.
Sa RN4220 lethal,2.2,0.5,2.0,6.1,-3.8,1.9,2.2,4.4
ugtP null kill,-1,9,5,1,-9,-23,1,-2
Autofluor counter,5880,.,3569,3970,3395,.,2449,?
Mtb hypoxia rep,-3,5,11,2,-2,9,8,5
Mtb hypoxia rep growth,-9,-2,-2,-3,1,9,1,0

57	CCN1C[C@]2(COC)CCC(O)[C@@]34C5CC6C(OC)C[C@@](O)(C5C6OC)[C@@](O)(C(OC)C23)C14 (some centres not stated)
58	O=C(NN=C1CCCC1)c1ccccc1OCc1ccc(Cl)cc1
59	CSc1nc2[nH]ncc2c(=O)n1-c1ccccc1
60	CCCCN(CCCC)S(=O)(=O)c1ccc(NS(=O)(=O)c2ccc(NC(C)=O)cc2)cc1
61	O=C(OCC#Cc1c(COC(=O)c2ccccc2)nnn1Cc1ccccc1)c1ccccc1
62	COc1cc(/C=N/NC(=O)CNC(=O)c2ccc3c(c2)OCCO3)ccc1O
63	Cc1ccc(S(=O)(=O)NC(=O)Nc2cc(C)ccc2F)cc1
64	CC(Cn1cnc([N+](=O)[O-])n1)=NNC(=O)COc1c(Cl)cc(Cl)cc1Cl
Assay by compound,57,58,59,60,61,62,63,64
PrP UTR inh,.,-13,-10,8,-6,1,9,.
BJeLR lethal,.,2,-3,0,-1,1,9,.
Sa RN4220 lethal,2.0,2.3,3.7,1.0,-2.4,.,4.5,2.7
ugtP null kill,-3,-7,1,0,3,.,7,14
Autofluor counter,.,3767,2098,21196*,2874,9697,8013,.
Mtb hypoxia rep,-4,-2,1,7,0,.,-2,.
Mtb hypoxia rep growth,0,9,-2,3,7,.,-5,.
